miR-21 FLuc = raises the signal of a miR-21 reporter | HeLa miR-21 FLuc reporter, luciferase, 48 h | Potency, µM (doses to about 38.3 µM), for the others: top-dose reporter change, positive = more light | 340,000 tested, under 10 active; active = well fitted rising curve with a large enough effect; inconclusive = small, poorly fitted or top-dose-only effect; inactive = no such curve, though single readings can be large or run the other way;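 also: % of control where 0% means no effect; miR-21 action dims this reporter so a rising signal means less miR-21 action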
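Using DMEM plus 10% FBS, HeLa miR-21-FLuc cells are incubated with test compounds (final up to about 40uM) for 48 hours; firefly luciferase signal is then imaged following reagent-mediated lysis.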
Numbers without * were called inactive; ? = inconclusive; [ ] = remark or other dose. This is a subset (hit frequency here may not be typical).

miR-21 FLuc	Molecule
-2.9%	Cc1c(CNCc2ccc(Cl)cc2)c(C(=O)O)c(C)n1Cc1ccc(F)cc1
-38.2%	COc1ccc(C)cc1NC(=O)c1cc2c(s1)-c1ccccc1SC2
-1.7%	CC(=O)c1c(C)oc2c(Cl)cc(NS(=O)(=O)c3ccc(Cl)cc3)cc12
?	Cc1cc(C)cc(OCCn2c(C3CC(=O)N(c4ccccc4Cl)C3)nc3ccccc32)c1 (stereo not given)
-1.3%	COc1ccccc1CNCc1ccc(C(=O)O)s1
0.6%	CCCNC(=O)C(C)n1nc(C)c2c(C)n(-c3ccccc3)nc2c1=O (stereo not given)
-6.7%	O=C(NCc1cccnc1)C(=O)NCC(c1cccnc1)N1CCN(c2ccccc2)CC1 (stereo not given)
-0.1%	CCCCN1CC(c2nc3ccccc3n2CCCCOc2cc(C)ccc2C)CC1=O (stereo not given)

Arranged by molecular weight (smallest number first): part of the list above
miR-21 FLuc	Molecule
-38.2%	COc1ccc(C)cc1NC(=O)c1cc2c(s1)-c1ccccc1SC2
-1.7%	CC(=O)c1c(C)oc2c(Cl)cc(NS(=O)(=O)c3ccc(Cl)cc3)cc12
-6.7%	O=C(NCc1cccnc1)C(=O)NCC(c1cccnc1)N1CCN(c2ccccc2)CC1 (stereo not given)

Carrying on:
miR-21 FLuc	Molecule
-6.7%	CCOC(=O)C1CCN(C(=O)c2nn(-c3ccc(C)cc3)c(=O)n(C)c2=O)CC1
-47.3%	CCc1cccc(-n2nnc(-c3nc(-c4cccs4)no3)c2N)c1
-2.6%	Cc1ccc2cccc(NC(=O)C(C)(C)Oc3ccc(Br)cc3)c2n1
-4.0%	CN(Cc1ccccc1)C(=O)c1ccc2c(c1)N(Cc1ccc(Cl)cc1)C(=O)c1ccccc1S2=O (stereo not given)
-0.2%	COc1ccc(CC(=O)Nc2nnc3n2CCS3)cc1OC
-11.4%	COc1ccc(CCNC(=O)CCCn2c(=O)c3ccccc3n(CC(=O)Nc3c(C)cc(C)cc3C)c2=O)cc1OC
-0.7%	CCCCCn1c(CNC(=O)c2ccc(F)cc2)nc2ccccc21
-0.5%	CCCc1cc(=O)n2[nH]c(NC(=O)c3ccccc3Cl)nc2n1

(more compounds)
miR-21 FLuc	Molecule
0.1%	Cn1c(=O)c2c(SCC(=O)NCc3ccco3)nc(-c3cccc(F)c3)nc2n(C)c1=O
8.8%	CCCCc1nn2c(=O)cc(COC(=O)c3ccc(NC(=O)c4ccccc4C)cc3)nc2s1
2.1%	Cc1cccc(OCC(=O)NCCc2nc3ccccc3[nH]2)c1C
-3.5%	Cc1ccc(C)c(NC(=O)c2cnc(N3CCCC3)nc2C)c1
29.1%	O=C(NCC1CCN(Cc2ccccc2F)CC1)Nc1ccc(F)c(Cl)c1
-5.6%	COc1ccc(-n2nc3ccc(NC(=O)c4ccc(C#N)cc4F)cc3n2)cc1Cl
-4.0%	COc1ccc(Br)c(C(=O)Nc2cc3c(cc2N2CCCC2)n(C)c(=O)c(=O)n3C)c1
-0.6%	Cc1ccc(-n2cnc3cc(C(=O)NCCC4=CCCCC4)ccc32)c(C)c1

(cont.)
miR-21 FLuc	Molecule
2.5%	O=C(CN1C(=O)COc2ccc(S(=O)(=O)N3CCOCC3)cc21)N1CCN(c2ccc(Cl)cc2)CC1
7.1%	CCC(Sc1nc2ccccc2c2nc(CCc3c(C)n[nH]c3C)nn12)C(=O)Nc1ccc(OC)cc1 (stereo not given)
-7.1%	CC(C)c1ccc(NC(=O)CSc2nc(=O)n(Cc3cccnc3)c3c2CCC3)cc1
0.0%	O=c1c2c3c(sc2nnn1CCCCOc1ccc(Cl)cc1)CCCC3
-1.2%	CSc1ccc(C2c3c(oc4cc(C)cc(C)c4c3=O)C(=O)N2Cc2ccco2)cc1 (stereo not given)
-0.4%	CCOc1cc(/C=C2\C(=O)N(c3cccc(C(=O)O)c3)N=C2C(F)(F)F)ccc1OCC(=O)Nc1ccccc1OC
2.4%	CCOc1cccc2c1N[C@@H](c1ccc(C(=O)O)cc1)[C@H]1CC=C[C@@H]21
16.7%	COc1ccc(CNC(=O)c2ccc(CS(=O)Cc3ccccc3Cl)o2)cc1 (stereo not given)

(list continues)
miR-21 FLuc	Molecule
10.5%	CCOC(=O)C1CCC(CN(Cc2ccc(OC)cc2)S(=O)(=O)c2ccc(F)c(C(=O)Nc3ccc(C)c(C)c3)c2)CC1 (stereo not given)
-1.6%	CCOC(=O)c1noc2ncnc(Nc3cccc(OC)c3)c12
0.2%	CCc1ccc(-n2nc(C)c3c(C)cc(=O)n(CC(=O)Nc4ccc(OC)c(OC)c4)c32)cc1
-6.9%	Cc1ccc(NC(=O)C(=O)NCC(c2cccnc2)N2CCN(Cc3ccccc3)CC2)cc1 (stereo not given)
9.0%	COc1ccccc1CNc1ccc(-c2nc(C)no2)cc1[N+](=O)[O-]
-13.8%	CCOc1ccc(NC(=O)CSC2=Nc3ccccc3C3=NC(CCC(=O)NCc4ccco4)C(=O)N23)cc1 (stereo not given)
-12.3%	COc1cccc(CN(C(=O)c2oc3ccccc3c2C)C2CCS(=O)(=O)C2)c1 (stereo not given)
-0.1%	Cc1ccc(CNC(=O)CCS(=O)(=O)c2cc3c4c(c2)CCN4C(=O)CC3)cc1

(next part)
miR-21 FLuc	Molecule
-1.5%	CCc1ccc(OCC(=O)NC(Cc2c[nH]c3ccccc23)C(=O)O)cc1 (stereo not given)
3.0%	CCOC(=O)c1cc(-c2ccc(OC)cc2)n(CCC(=O)Nc2nc3ccc(OCC)cc3s2)c1C
-0.6%	Cc1cccc(OCCCSc2nc(-c3ccc(C(C)(C)C)cc3)nc3cc(=O)[nH]n23)c1C
3.4%	CCc1ccc(OCC(=O)N(Cc2cccs2)c2ccc(Cl)cc2)cc1
-4.4%	O=C(Nc1c(C(=O)c2ccccc2)oc2ccccc12)c1cc(=O)c2ccccc2o1
1.1%	CC(Oc1ccccc1)C(=O)Nc1nnc2n1CCS2 (stereo not given)
2.3%	COc1cccc(-c2nc(S(=O)(=O)c3ccc(Cl)cc3)c(NCc3ccccc3)o2)c1
-0.5%	CC(NC(=O)c1ccc(Cn2c(=O)c3cccn3c3cccnc32)cc1)c1ccccc1 (stereo not given)

(list continues)
miR-21 FLuc	Molecule
-0.9%	Cc1nn2c(=O)cc(COC(=O)c3ccco3)nc2s1
2.5%	CCCOc1ccccc1C(=O)N1CCCCC1CCN1CCCCC1 (stereo not given)
22.7%	CSc1cccc(NC(=O)C2CCCN(S(=O)(=O)c3ccc4c(c3)CCCN4C(C)=O)C2)c1 (stereo not given)
14.5%	Cc1noc(C)c1S(=O)(=O)NCCc1csc2nc(-c3ccc(Cl)cc3)nn12
21.6%	Clc1ccc(CN2CCc3nc(Nc4ccc5c(c4)OCCO5)ncc3C2)cc1
22.0%	Cc1ccc(NC(=O)c2sc3ncnc(N(C)C4CCCCC4)c3c2C)cc1
?	COc1ccc(-n2cc(-c3ccccc3)c3c(SC(C)C(C)=O)ncnc32)cc1 (stereo not given)
-0.9%	Cc1ccc(Cl)cc1N1CCN(C(=O)c2cc(S(=O)(=O)N3CCCCC3)cn2C)CC1

Going on with the list.
miR-21 FLuc	Molecule
17.0%	COc1cc(OC)c(NS(=O)(=O)c2cc(-c3cnc(C)o3)ccc2OC)cc1Cl
13.0%	Cc1cccc(NC(=O)CSc2ncc(-c3ccc(Br)cc3)[nH]2)c1
13.0%	Cc1ccccc1Cn1c(CN2CCC(C(=O)NCc3cccnc3)CC2)cc2ccccc21
1.9%	Cc1ccc(CCNC(=O)C(CC(C)C)NS(=O)(=O)c2ccc3c(c2)oc(=O)n3C)cc1 (stereo not given)
-3.6%[7.66 µM]	N#Cc1ccc2c(c1)C[C@]1(CCCCN3C(=O)c4ccccc4C3=O)OC3=C(C(=O)OC4(CCCCC4)C3)C2O1
20.9%	CN(C)CCCn1c(-c2ccc(Cl)cc2)csc1=Nc1ccccc1
14.7%	CCOC(=O)c1ccc(N2CCN(c3cc(C)ccc3C)CC2)c(NC(=O)Nc2ccccc2)c1
20.2%	COCCNC(=O)c1ccc2c(c1)N=C(C)c1cc(C)ccc1S2

Other entries.
miR-21 FLuc	Molecule
-3.9%	CCCC(=O)NCC1(N(C)C)CCCCC1
-5.4%	COc1ccc(NC(=O)c2c(C)oc3ccc(O)c(CN4CCCC4)c23)cc1Cl
2.3%	CC(=O)c1cccc(NC(=O)c2sc(-n3nc(C)c(CCC(C)C)c3C)nc2C)c1
-5.4%	CCC(C)n1c(=N)c(C(=O)NC2CCCCC2)cc2c(=O)n3cc(C)ccc3nc21 (stereo not given)
0.2%	N#CC1=C2SCN(C3CCCCC3)CN2C(=O)CC1c1c(F)cccc1Cl (stereo not given)
3.2%	Cc1cc(O)c(CN2CCN(c3ccc(F)cc3)CC2)c2oc(=O)cc(C)c12
6.6%	O=C(NCCCN1CCN(c2cccc(Cl)c2)CC1)Nc1ccccc1C(F)(F)F
-0.2%[7.66 µM]	CC1(C)CC(=O)C2=C(C1)O[C@@]1(CCCCN3C(=O)c4ccccc4C3=O)Cc3cc(C#N)ccc3C2O1

(list continues)
miR-21 FLuc	Molecule
-12.6%	CCOc1ccccc1NC(=O)C1CCN(S(=O)(=O)c2ccccc2)CC1
24.6%	COC(=O)c1ccc(NC(=O)CC2C(=O)N(c3ccc(F)cc3)C(=O)N2Cc2ccc(OC)cc2)cc1 (stereo not given)
3.8%	COc1cccc(CNC(=O)c2cnc3c(-c4ccc(F)cc4)c(C)nn3c2C)c1
-13.6%	Cc1cc(C)nc(NS(=O)(=O)c2ccc(NC(=O)COc3ccc(C(C)(C)C)cc3)cc2)n1
-43.2%	CCOc1ccc(CNC(=O)C2=Cc3cccc(OC)c3OC2)cc1
9.2%	CCOC(=O)C1CCN(c2ncnc3c2c(-c2ccccc2)cn3-c2cccc(C)c2)CC1
-9.7%	CC(C)CCNC(=O)Cn1c(-c2cccs2)cc2cc(F)ccc21
-8.9%	CN(C)c1ccc(C(CNC(=O)c2ccccc2Cl)N2CCCC2)cc1 (stereo not given)

A different layout for part of the listing above:
Molecule | miR-21 FLuc
Cc1cc(C)nc(NS(=O)(=O)c2ccc(NC(=O)COc3ccc(C(C)(C)C)cc3)cc2)n1 | -13.6%
CCOc1ccc(CNC(=O)C2=Cc3cccc(OC)c3OC2)cc1 | -43.2%
CCOC(=O)C1CCN(c2ncnc3c2c(-c2ccccc2)cn3-c2cccc(C)c2)CC1 | 9.2%

5 records picked at random from those above:
miR-21 FLuc	Molecule
-9.7%	CC(C)CCNC(=O)Cn1c(-c2cccs2)cc2cc(F)ccc21
-8.9%	CN(C)c1ccc(C(CNC(=O)c2ccccc2Cl)N2CCCC2)cc1 (stereo not given)
24.6%	COC(=O)c1ccc(NC(=O)CC2C(=O)N(c3ccc(F)cc3)C(=O)N2Cc2ccc(OC)cc2)cc1 (stereo not given)
3.8%	COc1cccc(CNC(=O)c2cnc3c(-c4ccc(F)cc4)c(C)nn3c2C)c1
9.2%	CCOC(=O)C1CCN(c2ncnc3c2c(-c2ccccc2)cn3-c2cccc(C)c2)CC1

Continued.
miR-21 FLuc	Molecule
?	CCOC(=O)c1ccc(N2C(=O)c3n[nH]c(-c4cccs4)c3C2c2ccc(O)c(OC)c2)cc1 (stereo not given)
5.1%	CCOc1ccc(CNC(=O)c2ccc3c(Cl)c4c(nc3c2)CCCC4)cc1
0.1%	COc1cccc(NC(=O)CSc2nc3c([nH]c4ccccc43)c(=O)n2-c2cc(C)cc(C)c2)c1
23.9%	CCN(CC)S(=O)(=O)c1ccc2c(c1)N(CC(=O)N1CCN(c3ccccc3F)CC1)C(=O)CO2
-6.8%	COc1cccc(Cn2c(=O)n(-c3ccc(Br)cc3F)c(=O)c3sc4ccccc4c32)c1
26.7%	COc1ccccc1CNS(=O)(=O)c1cc(C(=O)Nc2cccc(C(F)(F)F)c2)ccc1F
-7.2%	COc1ccc(CNC(=O)CCc2c(C)c3cc4c(C)c(C)oc4cc3oc2=O)cc1OC
-13.7%	CCc1ccc(-c2nn(CC(=O)NCc3ccccc3)c3c2cnc2ccc(F)cc23)cc1

Carrying on.
miR-21 FLuc	Molecule
1.7%	Cc1ccc2c(c1)N(C(=O)N1CCC(C(=O)NCCc3ccc(Cl)cc3)CC1)CC(C)O2 (stereo not given)
-23.6%	O=C(C1COc2ccccc2O1)N(Cc1cccnc1)c1nc2c(F)cccc2s1 (stereo not given)
-3.0%	O=C(Nc1ccc(C(=O)OCc2cc(=O)n3nc(C4CC4)sc3n2)cc1)c1cccc(Cl)c1
21.1%	COc1ccc(C2=C(C)C(=O)N(Cc3ccc(C(=O)Nc4ccc(F)cc4C)cc3)S2(=O)=O)cc1
-2.2%	Cc1ccc2cccc(NC(=O)COc3ccccc3[N+](=O)[O-])c2n1
-2.4%	CCOc1ccc(-c2nc(SC(C(C)=O)C(=O)N(C)C)c3c(=O)n(C)c(=O)n(C)c3n2)cc1 (stereo not given)
-57.1%	Cc1ccccc1C(=O)OCc1cc(=O)n2nc(C3CC3)sc2n1
3.2%	CCC(=O)N1CCc2cc(Br)cc(S(=O)(=O)N3CCCC(C(=O)NCc4ccc(OC)cc4)C3)c21 (stereo not given)

(listing goes on)
miR-21 FLuc	Molecule
14.7%	Cc1sc2ncn(CC(=O)Nc3cccc(C(F)(F)F)c3)c(=O)c2c1S(=O)(=O)N1CCN(C)CC1
-1.3%	Cc1ccc(C(=O)c2oc3ccccc3c2NC(=O)Cc2coc3ccc(C)cc23)cc1
-1.3%	CCOC(=O)N1CCc2c(sc3c2c(=O)n(-c2ccc(F)cc2)c(=O)n3CC(=O)c2ccccc2)C1
2.6%	O=C(O)c1ccc(CNCc2ccccc2Cl)s1
-75.9%	COCc1cc(C)nc2sc(C(=O)Nc3cc(C)ccc3F)c(N)c12
-4.7%	CC(C)CN(CCCNC(=O)c1cn(C)c2ccc(S(=O)(=O)N(C)C3CCCCC3)cc2c1=O)CC(C)C
-0.7%	CCCC(=O)OCc1cnc(C)c2oc(=O)c(C(=O)Nc3cccc(C(F)(F)F)c3)cc12
?	O=C(CSc1cn(CCNC(=O)c2c(F)cccc2F)c2ccccc12)Nc1ccccc1F
10.4%	CCCCC(CC)CNC(=O)C1CCC(CNS(=O)(=O)c2cccc3nsnc23)CC1 (stereo not given)
-9.9%	COc1cc(O)ccc1C1CC(=O)Nc2c1c(=O)nc(SCc1ccccc1C)n2C (stereo not given)

Assay outcomes: PubChem BioAssay, National Center for Advancing Translational Sciences (NCATS)
